Assay outcomes from PubChem.
MbtI inh: MbtI salicylate synthase inhibitors, primary screen, biochemical, fluorescence intensity; 0.89% of 100,000 active; P9WFX0; inhibition, %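 (about 17 µg/mL by stock and volumes)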; purified MbtI enzyme, fluorescence intensity read-out;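 active = above 50% in both replicates, above 80% if mildly self-fluorescent; inactive = the rest, strongly fluorescent compounds included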;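 note: 0% = mean of negative and 100% = mean of positive controls; one replicate is shown; some compounds called inactive have numbers as strong as hits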
Target sequence (P9WFX0 whole entry, looked up): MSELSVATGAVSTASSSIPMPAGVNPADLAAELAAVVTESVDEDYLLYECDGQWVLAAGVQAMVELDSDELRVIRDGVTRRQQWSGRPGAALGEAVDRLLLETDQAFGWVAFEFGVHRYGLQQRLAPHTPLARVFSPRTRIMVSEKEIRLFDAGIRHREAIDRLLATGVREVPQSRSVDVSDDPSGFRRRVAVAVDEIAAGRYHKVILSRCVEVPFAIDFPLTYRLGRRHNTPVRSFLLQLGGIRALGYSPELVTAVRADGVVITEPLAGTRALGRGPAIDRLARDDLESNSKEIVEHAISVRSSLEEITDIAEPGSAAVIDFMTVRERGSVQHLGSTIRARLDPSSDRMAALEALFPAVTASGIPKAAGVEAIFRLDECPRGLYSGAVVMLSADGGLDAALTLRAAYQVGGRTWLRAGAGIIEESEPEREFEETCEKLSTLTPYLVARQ
Mtb MenB inh: M. tuberculosis MenB inhibitors, primary screen, biochemical, absorbance. 1,4-dihydroxy-2-naphthoyl-CoA synthase (Mycobacterium tuberculosis (strain ATCC 25618 / …. MenB enzyme assay, absorbance read-out; some hits fall short of the stated cut. inhibition, %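 (about 12 µg/mL by stock and volumes)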. 0.43% of 100,000 active;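 active = mean of two replicates above 30%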;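 note: 0% = no compound and 100% = wells with inactive enzyme; the first replicate is given; strong numbers were not always called active; inactives centre near -10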
PV pol inh: poliovirus RdRp elongation inhibitors, primary screen, biochemical, fluorescence polarization, total intensity. Genome polyprotein (Poliovirus type 1 (strain Mahoney)), P03300. poliovirus polymerase elongation; hits give low values. % elongation, % (compound at 16.7 µg/mL). 0.66% of 150,000 active; in the data active = % elongation below about 90%; note: some results filed as inactive read as strong as hits
Target sequence (P03300 1749-2209 limits assumed): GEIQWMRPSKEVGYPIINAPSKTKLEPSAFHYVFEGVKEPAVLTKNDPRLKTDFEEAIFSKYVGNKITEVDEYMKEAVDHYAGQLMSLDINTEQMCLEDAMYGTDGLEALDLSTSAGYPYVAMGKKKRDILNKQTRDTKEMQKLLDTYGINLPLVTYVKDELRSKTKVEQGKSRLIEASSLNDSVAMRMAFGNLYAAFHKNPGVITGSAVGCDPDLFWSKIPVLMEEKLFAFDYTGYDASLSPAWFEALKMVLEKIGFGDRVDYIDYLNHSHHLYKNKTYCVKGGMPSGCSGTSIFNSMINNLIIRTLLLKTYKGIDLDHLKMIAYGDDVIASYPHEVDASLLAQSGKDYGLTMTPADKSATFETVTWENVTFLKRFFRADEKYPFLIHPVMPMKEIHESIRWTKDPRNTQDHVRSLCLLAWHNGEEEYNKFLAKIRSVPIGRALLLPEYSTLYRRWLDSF
PV pol inh intensity: also measured in PV pol inh; calls as there; % elongation; measured here: total intensity read-out; formula for this scale not given here;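 total fluorescence in place of polarization; lower means less elongation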
The depositor's hits bear a star; i = inactive; · = no result given; & = joins results of further samples.

entry	Molecule	MbtI inh	Mtb MenB inh	PV pol inh	PV pol inh intensity
1	COc1cccc2c1C(=O)C1C(O)=C3C(=C(O)C1C2=O)C[C@@](O)(C(=O)CO)C[C@@H]3OC1CC(N)C(O)C(C)O1 (stereo not given in full)	1	4	56&67	161&185
2	Cc1nc2ccccn2c1C1(O)C(=O)Nc2c(Cl)cc(Cl)cc21 (stereo not given)	-18	·	102	104
3	CCOc1ccc(/C=N/n2c(C)csc2=Nc2ccc(C)cc2)c(O)c1	-5	-19	108	116
4	Cc1ccnc2nc(C(=O)Nc3ccc(Cl)cc3F)nn12	3	·	103	100
5	N#CC(C#N)=C1C=C2C=C(NCc3ccccc3)CCC2CC1 (stereo not given)	-1	-39	45	239
6	Cc1cc(C(F)(F)F)nc2ccccc12	-4	·	100	101
7	COc1ccccc1CNC(=O)CN1CCc2ccccc2C1	-3	-40	103	100
8	CN1C(=O)C(O)N(c2ccc(Cl)c(Cl)c2)C1=O (stereo not given)	-7	-36	100	103
9	Cc1ccc(-c2noc(COC(=O)CCC(=O)c3ccc(Cl)s3)n2)cc1	5	-19	102	102
10	CCCCN(C(=O)c1c(C)oc2ncn(C)c(=O)c12)C1CCN(C(C)=O)CC1	-26	-21	104	104
11	O=C(CSC1=Nc2ccccc2C2CC=NN12)Nc1ccc2c(c1)CCC2 (stereo not given)	17	-124	3.0*	24*
12	O=C(Nc1ccc(N2C(=O)Nc3ccccc3N2O)cc1)c1ccco1	13	16	100	103
13	COc1ccc(NC(=O)c2coc(C)c2)cc1	3	-11	103	102
14	NC(=S)c1[nH]nc2c1[nH]c1ccccc12	·	-62	98	104
15	CNC(=S)Nc1ccc(OC(F)(F)F)cc1	-6	-31	100	99
16	COP1(OC)=NP(OC)(OC)=NP(OC)(OC)=NP(OC)(OC)=N1	4	-30	103	103
17	CCc1nnc(NC(=O)c2c(C)nn(-c3ccccc3)c2Cl)s1	-4	-11	104	103
18	CCCc1nc(NCCc2cccs2)c2nnn(Cc3ccccc3Cl)c2n1	-9	-5	99	101
19	CC1CCc2[nH]c3ccc(C(=O)NCCCN4CCCC4=O)cc3c2C1 (stereo not given)	-9	-34	102	97
20	COc1cccc(NC(=O)C2CCN(c3nn4c(=O)cc(C)nc4s3)CC2)c1	-6	-2	99	104
21	CCOC(=O)C1CCN(C(=O)C(Cc2ccccc2)NS(=O)(=O)c2ccc3c(c2)CCC(=O)N3)CC1 (stereo not given)	-3	-9	100	102
22	CNc1nc2ccccc2n2c(C)nnc12	-5	8	103	103
23	N#Cc1c(N)c(C(=O)c2ccccc2)n2ccccc12	12	-17	91	135
24	Cc1nc(Oc2ccc(Cl)cc2)c(C(=O)O)c(C)c1Cl	·	-13	96	89
25	Cc1ccc(S(=O)(=O)NCc2ccccc2)cc1C(=O)N1CCCCCC1	·	2	101	102
26	Cc1ccc2nc3c(c(N)c2c1)CCCC3	88	-39	99	100
27	COCCn1cnnc1SCC(=O)NC(=O)C1CCCCC1	-10	8	102	99
28	CN(C)CCCNc1c(N)c(=O)oc2ccccc12	69	-6	99	101
29	O=C(CN1C(=O)CCSc2ccccc21)N1CCCC1	-9	-8	101	110
30	CN(c1ccccc1C(=O)O)S(=O)(=O)c1ccc2c3c(cccc13)C(=O)N2	-10	-25	101	91
31	COc1cccc(C2C(=O)N(C3CCC(C)CC3)CC(=O)N2CCc2ccccc2)c1OC (stereo not given)	-7	-5	101	102
32	N#CCOC(=O)c1cc2c(s1)CCCCC2	-2	-16	104	100
33	CCOC(=O)Cc1nnc(-c2ccccc2)o1	1	-12	106	105
34	CCn1c(C2COc3ccccc3O2)n[nH]c1=S (stereo not given)	27	-6	100	101
35	CSc1sc(=S)sc1SC	5	-19	104	107
36	NC(=O)c1oc2ccccc2c1NC(=O)C1CC(=O)N(c2ccc(F)cc2)C1 (stereo not given)	-132	-16	99	105
37	c1ccc(-c2noc(NC3CCCC3)n2)cc1	-15	-11	102	101
38	O=C(O)COCC1CCCO1 (stereo not given)	4	-14	101	101
39	CCCc1n[nH]c2c1/C(=N\OCC)CC(C)(C)C2	-20	-52	99	102
40	CC(CN(C)Cc1ccccc1)OC(=O)c1cccc(F)c1 (stereo not given)	4	2	101	106
41	Cc1nc2sccn2c(=O)c1S(=O)(=O)N1CCc2ccccc2C1	-27	-6	98	104
42	CCCC(c1nnnn1CCC(C)C)N1CCC(C(N)=O)CC1 (stereo not given)	-4	-16	103	101
43	O=C(CCc1ccccc1)N/N=C/c1cccc(O)c1	7	1	102	104
44	O=C1c2ccccc2C(=O)N1CSc1ccccc1	9	-9	102	94
45	O/N=c1/sc2ccccc2n1CCS	69*	15	99	103
46	CC(=O)Nc1ccc(N/C=C/C(=O)c2ccco2)cc1	30	i	101	102
47	Nc1c(C(=O)NCc2cccs2)c2nc3ccccc3nc2n1-c1ccc2c(c1)OCO2	-129	-11	·	·
48	COc1ccc(C(=O)OC2CC[C@@]3(C)C4CCC5[C@]6(O)C[C@H](O)[C@@]7(O)C(CN8CC(C)CCC8[C@@]7(C)O)[C@]6(O)C[C@@]53O[C@]24O)cc1OC (stereo not given in full)	·	-2	102	104
49	O=S(=O)(/N=S1/CCC2(C1)OCCO2)c1cc(C(F)(F)F)cc(C(F)(F)F)c1 (stereo not given)	-5	-18	106	106
50	Cc1ccc(CC(=O)NC2CCSC2=O)cc1 (stereo not given)	1	-45	103	102
51	FC(F)(F)c1ccc(NCCNc2ccc(C(F)(F)F)cn2)nc1	-6	·	97	100
52	O=c1c2ccccc2nnn1CSc1nnc(CN2CCCC2)n1Cc1ccccc1	11	-21	106	107
53	CCN(C(=O)c1cc2c(C)nc3ccccc3c2o1)c1cccc(Cl)c1	-4	-7	103	100
54	c1cc(CN2CCC(N3CCCCC3)CC2)ccn1	·	-4	98	103
55	Cc1cc(N2CCC(C(=O)NC3CC3)CC2)n2nc(C)c(-c3ccc(Cl)cc3)c2n1	13	-24	102	105
56	CCOC(=O)c1csc(N2CCc3ccccc32)n1	18	-24	104	101
57	Cc1cc(OCC(=O)c2cc(C)n(-c3nccs3)c2C)ccc1Cl	-10	-11	105	106
58	CC(C)(O)CNC(=O)C(Cc1ccccc1)N1C(=O)c2ccccc2C1=O (stereo not given)	-3	-28	105	100
59	O=C(CSc1ncnc2c1oc1ccccc12)Nc1cccc2ccccc12	-2	-13	101	103
60	CCOC(=O)c1c(S(=O)(=O)Nc2ccc(OC)c(Cl)c2)c(C)n(C)c1C	-7	16	100	103

(continued)
entry	Molecule	MbtI inh	Mtb MenB inh	PV pol inh	PV pol inh intensity
61	O=C1/C(=C\c2cccs2)SC(=S)N1CC1CCCO1 (stereo not given)	-5	-47	99	102
62	Cn1/c(=N/NC(=O)C2=NN(c3ccccc3)C(=O)CC2)sc2ccccc21	13	-19	98	88
63	Nc1c(N(C(=O)CC2OC(=O)c3ccccc32)C2CCCC2)c(=O)[nH]c(=O)n1Cc1ccccc1 (stereo not given)	-5	-3	101	97
64	CCS(=O)(=O)c1ncc(Cl)c(C(=O)NCCc2ccc(OC)c(OC)c2)n1	7	-21	105	101
65	O=C1c2ccccc2C(=O)c2c1ncn2-c1ccccc1	-12	-23	105	105
66	Cc1cc(C)cc(OCC(=O)OCc2nnc(-c3ccccc3)o2)c1	-10	-42	109	117
67	O=C(OCn1nnc2ccccc2c1=O)C1CCN(S(=O)(=O)c2cccs2)CC1	1	-10	100	108
68	CCC(C(=O)Nc1cccc(NC(C)=O)c1)c1ccccc1 (stereo not given)	·	-19	112	112
69	O=C1NC(c2ccccc2)Nc2c1sc(=S)n2-c1ccccc1 (stereo not given)	20	-20	103	102
70	C=CCn1c(SCCC(=O)NCc2ccc3c(c2)OCO3)nc2scc(-c3ccco3)c2c1=O	11	-22	102	103
71	CN1CCN(/N=C/c2sc(Nc3ccccc3)nc2Cl)CC1	-8	-6	70	223
72	O=S(=O)(/C=C/c1ccccc1)N1CCN(c2ccc(S(=O)(=O)N3CCCCC3)cn2)CC1	4	6	97	99
73	COc1ccc(CC2c3cc(OC)c(OC)cc3CCN2C)cc1OC (stereo not given)	-14	-8	100	101
74	O=C(Nc1cccc(C(F)(F)F)c1)N1CCC(CN2CCc3ccccc3C2)CC1	-2	11	103	105
75	CN1C(=O)CSc2ccc(NC(=O)NCc3ccccc3)cc21	-1	-16	103	104

Record cards (already shown). Order of screens: MbtI inh	Mtb MenB inh	PV pol inh	PV pol inh intensity
CN1CCN(/N=C/c2sc(Nc3ccccc3)nc2Cl)CC1 across the screens: -8	-6	70	223
O=S(=O)(/C=C/c1ccccc1)N1CCN(c2ccc(S(=O)(=O)N3CCCCC3)cn2)CC1 across the screens: 4	6	97	99
Cn1/c(=N/NC(=O)C2=NN(c3ccccc3)C(=O)CC2)sc2ccccc21 across the screens: 13	-19	98	88
O=C(Nc1cccc(C(F)(F)F)c1)N1CCC(CN2CCc3ccccc3C2)CC1 across the screens: -2	11	103	105
Cc1cc(C)cc(OCC(=O)OCc2nnc(-c3ccccc3)o2)c1 across the screens: -10	-42	109	117

Next section.
entry	Molecule	MbtI inh	Mtb MenB inh	PV pol inh	PV pol inh intensity
76	Cc1ncc(CO)c2cc(-c3nnc(Nc4cc(C(F)(F)F)ccc4Cl)s3)c(=O)oc12	-4	-4	103	103
77	Cc1c(OCC#N)ccc2c3c(c(=O)oc12)CCC3	0	1	101	104
78	CC(O)Cc1nnc(SCc2nnc(-c3ccccc3)o2)n1-c1ccccc1 (stereo not given)	-5	-7	100	102
79	Cc1nc(-c2cccs2)sc1C(=O)Nc1ccccc1	27	3	·	·
80	CC(CC(=O)N1CCN(c2ccc(F)cc2)CC1)CC1=NS(=O)(=O)c2ccccc2N1 (stereo not given)	-6	-5	103	103
81	Cc1onc(-c2ccccc2)c1NC(=O)Nc1ccc(OC(F)F)cc1	-3	3	101	99
82	CCOc1ncccc1C(=O)OCc1ccc(Cl)cc1	-9	-23	106	107
83	Cc1nc(SCC(=O)Nc2cccc(C(F)(F)F)c2)[nH]c(=O)c1C	13	-8	103	100
84	O=C(NCC(c1cccs1)N1CCOCC1)c1ccccc1C(=O)NCC(c1cccs1)N1CCOCC1 (stereo not given)	-2	-16	101	96
85	Cc1occc(=O)c1OC(=O)c1ccco1	8	8	102	101
86	O=C(CCCn1ncn2c(cc3occc32)c1=O)NC1CCCc2ccccc21 (stereo not given)	11	-25	102	105
87	CC(=O)Nc1ccc(NC(=O)C2CCCN2S(=O)(=O)c2cccc3nsnc23)cc1 (stereo not given)	5	-7	103	99
88	Cc1nnc(SCC(=O)Nc2ccc(F)cc2)o1	-14	4	103	103
89	C=CCNCC1OCc2ccccc2CO1	-6	13	101	101
90	O=c1cc(O)c2sc(SCc3ccncc3)nc2[nH]1	·	-143	102	104
91	Fc1ccccc1CSC1=NCCN1	3	38	103	102
92	COc1cc(OC)cc(-c2nnc(SCC(=O)N3CCc4ccccc43)o2)c1	1	0	97	104
93	O=C(O)CNC(=O)C(O)(c1ccccc1)c1ccccc1	-7	5	103	106
94	CCn1cc(C(=O)N2CCOCC2)c(=O)c2cc(S(=O)(=O)N(C)C)ccc21	1	-3	103	102
95	CCN(CC)S(=O)(=O)c1ccc(NC(=O)Nc2ccc(F)cc2)cc1	-7	1	98	99
96	CCN1CCCC1CNc1nc2ccc(C(=O)c3ccccc3)cc2n2cnnc12 (stereo not given)	16	5	102	100
97	CC1CN=C(N(CCc2ccccc2)C(=O)Nc2ccc(Cl)cc2)S1 (stereo not given)	-5	0	97	106
98	O=C(CCc1nc(-c2ccccc2)no1)OCc1c(Cl)cccc1Cl	-6	-27	105	110
99	C=CCn1c(SCC)nc(O)cc1=O	-7	-281	101	102
100	O=C(CN1CCN(Cc2ccccc2)CC1)N/N=C\c1ccccc1	-3	-3	100	103
101	COc1cc(OC)cc(-c2nnc(SCc3cccc(S(=O)(=O)N(C)C)c3)o2)c1	0	-15	112	122
102	CN(Cc1c(F)cccc1Cl)C(=O)COc1ncnc2ccccc12	-6	-11	109	124
103	CCCNC(=O)c1ccc(C(=O)NCCC)cc1	-7	-53	99	98
104	CCc1cc2c(cc3c(=O)[nH]ncn32)s1	15	10	101	103
105	Cc1ccc(-c2ncc(-c3ccccc3)o2)cc1	94	·	100	99

Two entries from above, as labelled records.
68	CCC(C(=O)Nc1cccc(NC(C)=O)c1)c1ccccc1 (stereo not given)
  MbtI inh: ·
  Mtb MenB inh: -19
  PV pol inh: 112
  PV pol inh intensity: 112
43	O=C(CCc1ccccc1)N/N=C/c1cccc(O)c1
  MbtI inh: 7
  Mtb MenB inh: 1
  PV pol inh: 102
  PV pol inh intensity: 104

Carrying on.
entry	Molecule	MbtI inh	Mtb MenB inh	PV pol inh	PV pol inh intensity
106	O=C(CC1SC(=Nc2ccc(OC(F)F)cc2)N(CCN2CCOCC2)C1=O)Nc1ccc(F)cc1F (stereo not given)	10	-9	95	98
107	CC(Sc1ncnc2ccccc12)C(=O)Nc1cccc(C(F)(F)F)c1 (stereo not given)	-8	·	100	98
108	COc1cc2c(cc1OC)C(c1cccnc1)N(C(C)=O)CC2 (stereo not given)	1	-20	99	102
109	CN1CCN(C(=S)C(=O)Nc2ccccc2)CC1	5	1	100	102
110	O=C(O)Cc1cncc(Br)c1	30	-16	103	101
111	CCC(C(=O)Nc1ccccc1OC)n1c(C(=O)OC)cc2sccc21 (stereo not given)	4	14	104	102
112	CCOC(=O)C(C)(C)Oc1ccc(Cl)cc1	-13	6	103&102	101&100
